# ALR inh = human ALR oxidase inhibition via reduced H2O2 | purified ALR, DTT oxidation, H2O2 HRP-luminol luminescence | 3.8% of 290,000 active | inhibition, % (no concentration beside the values) | AID 485317;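 active means mean and each replicate at 75% or more; inconclusive means only one of the two met; inactive means neither met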;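 further: stock transfer was 7.5 nL into about 7.5 µL; 0% = neutral wells and 100% = wells with inactivated enzyme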
# Target sequence (P55789 whole entry, looked up): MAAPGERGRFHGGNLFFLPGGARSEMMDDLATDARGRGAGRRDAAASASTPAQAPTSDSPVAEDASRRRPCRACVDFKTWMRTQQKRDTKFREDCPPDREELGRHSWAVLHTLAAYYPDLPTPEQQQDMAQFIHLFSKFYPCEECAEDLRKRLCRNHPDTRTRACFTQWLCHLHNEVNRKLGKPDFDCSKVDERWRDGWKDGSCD
# LANA-H2B inh = blocks KSHV LANA binding to histone H2A/H2B | Q9QR71 | AID 2629 | 0.6% of 320,000 active | inhibition, % (no concentration beside the values) | cell-free LANA-H2A/H2B peptide, fluorescence polarization; in the data active means inhibition mostly above about 10%, no sharp cut-off; inactive means mostly below about 6.7%;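 further: stock transfer was 7.5 nL into about 10 µL; 0% = median of vehicle wells and 100% = median of positive control wells; one replicate is shown; the record names a cut of 25% in any replicate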
# rRNA inh HTS = inhibits bacterial ribosomal RNA function over humanized ribosomes; E. coli WT GFP vs humanized-ribosome RFP mutants, fluorescence, 24 h; hits give low values; DMSO median 0, no signal -100; GFP signal change (wild-type ribosome), % (concentration not given with the values); 1.6% of 350,000 active; AID 720706;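 active means significant combined selectivity score with lowered wild-type GFP, culture density cut under 30%, mutant RFP and density less affected; inactive means any of these conditions unmet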; further: one replicate is shown; some compounds called inactive have numbers as strong as hits
# T cruzi inh = blocks replication of Trypanosoma cruzi | T. cruzi beta-gal in NIH3T3, luminescence, 90 h | inhibition, % (test concentration not listed) | 1.4% of 300,000 active;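 active means mean inhibition across valid replicates above about 55%, limit read from the data; inconclusive means mean below that limit but half or more replicates reach it; inactive means mean below it, under half of replicates reach it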;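 further: signal also drops with host cell toxicity which is not excluded here; 0% = plate median of DMSO wells and 100% = zero luminescence signal; higher percent means less beta-gal luminescence so fewer parasites; stock transfer was 50 nL into about 50 µL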
# Calb FLC = affects C. albicans growth with fluconazole | C. albicans CaCi-2 (fluconazole-resistant clinical isolate) + fluconazole, Alamar Blue growth, 48 h | growth inhibition, % (test concentration not listed) | 0.57% of 300,000 active;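 active means most replicates above 75%; inconclusive means exactly half above 75%; inactive means most below 75%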;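 further: all wells also contain fluconazole at 8 µg/ml as a sub-toxic cotreatment; 0% = median of DMSO wells and 100% = median of geldanamycin control wells; wells of about 8 µL received 7.5 nL stock; the first replicate is given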
# Beta apoptosis = beta cell apoptosis inhibition. AID 435005. protection from apoptosis, % (no concentration beside the values). INS-1E cytokine-induced death, ATP luminescence, 48 h; percent of positive-control rescue, neutral wells zero. 0.8% of 300,000 active;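 active means all replicates at 75% or more, or half of them and the mean; inconclusive means half reach 75% but not the mean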;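 further: 0% = cytokine-treated negative control wells and 100% = positive control rescue; higher means more ATP so stronger rescue from cytokine killing; wells of about 40 µL received 100 nL stock; the first replicate is given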
# Beta2AR agonist = human beta-2 adrenergic receptor agonism by FAP | Am2.2-beta2AR cells, FAP receptor internalization, flow cytometry; reference of the scale not given here | response, % (concentration not given with the values) | 0.43% of 340,000 active;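 active means response above a set limit, near 3 SD of response in nonfluorescent compounds, cut at about 42% in these data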;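 further: stock transfer was 100 nL into about 11 µL; a reference agonist was the positive control; negative values mostly stem from fluorescent compounds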
# Target sequence (P07550 whole entry, looked up): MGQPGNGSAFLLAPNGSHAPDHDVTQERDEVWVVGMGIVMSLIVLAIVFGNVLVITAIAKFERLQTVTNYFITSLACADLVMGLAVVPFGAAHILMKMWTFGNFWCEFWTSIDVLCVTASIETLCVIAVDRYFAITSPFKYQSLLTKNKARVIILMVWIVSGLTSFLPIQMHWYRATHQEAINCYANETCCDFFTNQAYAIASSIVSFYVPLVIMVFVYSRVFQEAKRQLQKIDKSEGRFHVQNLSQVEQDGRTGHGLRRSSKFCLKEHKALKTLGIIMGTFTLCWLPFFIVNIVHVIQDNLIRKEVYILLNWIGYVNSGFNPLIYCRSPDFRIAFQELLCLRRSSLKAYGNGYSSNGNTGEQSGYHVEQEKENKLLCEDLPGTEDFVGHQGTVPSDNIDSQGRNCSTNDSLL
# Bfl-1 A1 inh = inhibitors of the anti-apoptotic protein A1, read as caspase activation; MEF A1-2A-BIM cells, Caspase-Glo 3/7 luminescence, 3 h; percent of clofoctol response, vehicle zero; caspase activation, % (test concentration not listed); 0.066% of 330,000 active;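 active means over half of replicate activation scores above 10%, or exactly half above 10 with the replicate mean above 10; inconclusive means replicate mean below 10 yet half the replicates above 10; inactive means over half of replicates below 10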;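 further: wells of about 30 µL received 50 nL stock; many hits fall short of the cut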
# rRNA inh HTS OD600 = further read-out of rRNA inh HTS, marked with its call; OD600 change, %; measured here: OD600 growth;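 optical density of the mix in the first replicate; 0 = DMSO median and -100 = no signal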
# rRNA inh HTS RFP = also measured in rRNA inh HTS; calls as there; RFP signal change, %; measured here: RFP humanized mutant strains;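 first replicate; 0 = DMSO median and -100 = no signal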
# An asterisk follows results filed as active; ? = inconclusive; . = not tested or not shown.
SMILES,ALR inh,LANA-H2B inh,rRNA inh HTS,rRNA inh HTS OD600,rRNA inh HTS RFP,T cruzi inh,Calb FLC,Beta apoptosis,Beta2AR agonist,Bfl-1 A1 inh
CC1(C(=O)OCC(=O)Nc2ccc(Cl)cn2)CC1(Cl)Cl (centres undefined),.,-6.0,.,.,.,.,.,1.1,0.3,-0.5
CCOC(=O)CCC(=O)Nc1cccc([N+](=O)[O-])c1,-3.1,4.5,.,.,.,-18.2,-5.6,-2.5,-3.1,0.2
Oc1ccccc1N1CCN(c2nc(-c3cccs3)nc3ccccc23)CC1,.,-0.7,-7.7,-7.3,-3.8,14.1,?,4.9,6.8,0.1
CC(=O)Nc1ccc(S(=O)(=O)Nc2nc3ccccc3nc2Nc2cccc(O)c2)cc1,81.8*,1.8,-3.1,-11.9,-4.6,-4.3,6.6,1.8,-2.9,-0.1
Cc1nc(-c2c(-c3ccc(O)cc3O)noc2C(F)(F)F)cs1,14.8,2.6,.,.,.,1.6,-12.8,-3.6,-2.8,-1.0
CC1CN(C(=O)c2ccc3c(c2)OCO3)OC(c2ccccc2)O1 (centres undefined),-1.3,1.1,.,.,.,7.7,-2.8,-3.6,-3.6,0.0
CCn1cc(C(=O)NCCCN(C)c2ccccc2)c(=O)c2cc(S(=O)(=O)N(C)C)ccc21,?,0.9,-10.0,-0.6,1.5,33.8,2.8,2.8,3.0,1.9
S=C(Nc1ccccc1)c1ccccn1,.,-16.3,.,.,.,.,-5.6,11.2,-10.3,-5.2
COc1ccc(OC)c(CN2CCN(CCc3ccccc3)C(CCO)C2)c1 (centres undefined),2.8,0.5,-3.4,3.1,2.9,-23.3,-32.4,-2.2,-1.8,0.1
O=c1cc(CSc2ccc(Cl)cc2)nc(-c2ccccn2)[nH]1,-10.7,2.8,-56.6,-76.8,-16.8,59.4*,111.7*,79.7*,8.8,-0.1
CCCCNC(=S)Nc1cccc2cnccc12,-22.6,5.6,-14.0,-21.9,-0.5,-1.6,6.6,0.9,-7.3,0.6
COc1ccc(NC(=O)C2CCN(C(=O)Cc3ccccc3)CC2)c(OC)c1,-8.0,2.3,1.7,-11.2,-3.9,11.0,-4.8,-3.2,1.4,1.1
CC(=O)N1c2ccc(S(=O)(=O)N3CCCCC3)cc2CC1C(=O)Nc1ccc(F)cc1C (centres undefined),-1.7,2.2,1.3,6.3,-1.9,-7.0,-1.7,.,-4.3,-0.9
CC(=O)Nc1ccc(NC(=O)c2ccccc2CC[N+](=O)[O-])cc1,-8.0,-2.9,.,.,.,10.3,9.7,-5.9,1.2,0.6
CCc1nnc(NC(=O)CSc2sc3c(O)cc(=O)[nH]c3c2C#N)s1,98.4*,3.0,6.8,13.4,1.0,1.0,-7.8,-5.8,3.0,-0.2
N#CCC(=O)Nc1ccc(C(=O)NCCC(c2ccccc2)c2ccccc2)cc1,3.6,-0.6,-2.4,-3.3,-1.3,14.4,-3.6,3.9,-8.7,0.1
O=C(O)c1ccc2c(c1)C(=O)N(c1cccc(-c3nc4ccccc4s3)c1)C2=O,-2.7,-1.2,-7.1,-10.1,-3.1,-2.5,-3.0,-5.3,0.2,-1.0
CCN(CC)CCOc1ccc(Br)cc1,5.2,-2.9,.,.,.,-0.2,-15.4,2.6,2.5,-0.1
O=[N+]([O-])c1ccc(N2CCOCC2)cc1SCc1ccco1,-4.7,-1.5,.,.,.,-11.6,-7.5,-5.7,-14.8,0.6
CCn1cc(C(=O)NCCCN2CC(C)CC(C)C2)c2cc(OC)c(OC)cc2c1=O (centres undefined),3.5,-0.8,.,.,.,-12.7,9.5,-5.3,-0.7,-0.3
Cc1ccc(S(=O)(=O)N(C)C)cc1NC(=S)NC1CCCC(C)C1C (centres undefined),7.5,5.4,.,.,.,3.7,1.5,0.3,0.7,0.6
Cc1ccc(S(=O)(=O)CC(=O)Nc2cc(C)on2)cc1,3.0,-1.8,7.1,5.9,-0.3,-2.9,-2.9,-8.5,2.5,0.4
COc1ccc(NC(=O)c2c(NC(=O)CNCc3ccco3)sc3c2CCC3)cc1,-23.2,-0.7,.,.,.,20.8,2.3,14.9,4.1,0.1
CCOCCOC(=O)C(C)Oc1ccc(Oc2nc(Cl)ccc2Cl)cc1 (centres undefined),-0.3,-1.4,-21.4,-28.8,-6.1,9.1,2.1,-0.5,-1.7,0.7
Cc1ccccc1OCC(=O)Nc1nnc(-c2ccncc2)s1,86.7*,-1.1,.,.,.,-18.9,-1.5,0.7,3.4,1.4
SMILES,ALR inh,LANA-H2B inh,rRNA inh HTS,rRNA inh HTS OD600,rRNA inh HTS RFP,T cruzi inh,Calb FLC,Beta apoptosis,Beta2AR agonist,Bfl-1 A1 inh
CCC1C(=O)N=C(SCC(=O)Nc2ccccc2)NC1=O (centres undefined),99.3*,1.9,.,.,.,-2.6,-3.7,-0.9,2.9,1.3
Cc1ccc(OCCNC(=O)CCNS(=O)(=O)c2ccc(C)cc2)cc1,1.6,-2.3,-1.7,-0.5,-1.7,-6.3,-4.4,-6.8,-1.5,0.2
CN1CCN(C(=O)CCc2nnc3ccc(N4CCC5(CC4)OCCO5)nn23)CC1,-7.1,-2.0,6.8,7.1,2.2,-16.4,30.2,-9.1,7.3,0.6
COc1ccc(C2C(C(=O)Nc3cccnc3)=C(C)Nc3nc(-c4ccco4)nn32)cc1 (centres undefined),.,1.7,0.3,3.6,-0.3,-19.7,-5.4,-5.5,-7.4,0.2
CCOC(=O)Nc1sc2nc(C)cc(C)c2c1-n1cccc1,-5.8,6.3,.,.,.,.,-1.8,-1.3,-2.3,-0.2
Fc1ccccc1N1CCN(c2cnc3ccccc3n2)CC1,-5.1,-6.0,.,.,.,-8.6,-25.4,-3.1,-8.2,-0.6
O=C(Cc1ccc(Cl)cc1)Nc1ccc2oc(-c3ccncc3)nc2c1,-4.0,-0.7,.,.,.,44.0,2.0,6.8,-6.2,0.0
COc1ccc(OC)c(N2C(N)=NC(N)=NC23CCCC3)c1,-0.9,-1.4,.,.,.,-4.0,-2.5,3.7,-1.0,0.4
Cc1ccc(C(=O)COC(=O)C(C)N2C(=O)C3C4CCC(C4)C3C2=O)cc1 (centres undefined),-10.2,-29.7,-15.8,-5.6,-4.9,-2.2,-4.1,.,-2.8,-0.2
COC(=O)c1cc2sccc2n1CC(=O)Nc1ccc(OC)c(OC)c1OC,0.8,-2.9,.,.,.,-20.1,-7.0,-0.8,-2.7,-0.9
CC(=O)N1CCN=C1SCc1ccc(C(F)(F)F)cc1,99.0*,-2.7,6.2,20.9,-0.1,3.7,2.6,.,-12.5,1.6
CC1CCN(C(=O)c2ccc(CSc3nc4ccncc4n3Cc3ccc(F)cc3)cc2)CC1,-17.8,-2.1,11.5,-13.5,14.8,15.1,7.4,3.6,2.0,-0.8
COc1ccc(C(c2sc3ncnn3c2O)N2CCN(c3ccccc3F)CC2)cc1OC (centres undefined),-7.5,-2.2,-0.9,-11.9,0.0,39.9,-17.2,-3.3,21.9,-0.2
CC(=O)Oc1cccc(N2C(=O)C3CC=C(Cl)CC3C2=O)c1 (centres undefined),-19.0,-3.2,.,.,.,6.6,-5.3,4.5,-2.3,1.0
CCOC(=O)CNC(=O)C1CCC(CNS(=O)(=O)c2cccc3nsnc23)CC1 (centres undefined),-5.2,.,16.9,8.9,2.5,-0.7,?,.,1.3,.
Cc1c(CCC(=O)N[C@@H](CCCNC(N)=O)C(=O)O)c(=O)oc2cc3oc4c(c3cc12)CCCC4,-10.2,0.3,-14.1,-14.2,-1.3,4.5,-0.1,0.3,0.5,?
CCOc1ccc(CCNC(=O)CN(C)S(=O)(=O)c2cccs2)cc1OCC,-2.0,1.7,5.0,-3.1,-0.3,-11.3,-2.5,-5.6,21.1,1.0
C=CCOC(=O)C1=C[C@H](c2ccc(C(F)(F)F)cc2)C[C@H](OCCCCO)O1,4.5,-1.2,1.6,5.5,0.8,25.6,-3.5,-5.7,0.3,-0.6
CC(=O)c1sc2nc(=O)c(C)nn2c1C,-5.8,-0.6,.,.,.,10.9,-3.7,-3.6,-3.4,-0.5
CNS(=O)(=O)c1cccc(C(=O)OCC(=O)Nc2ccccc2F)c1,-5.6,1.5,6.4,9.7,0.0,-2.7,-0.7,-4.2,4.4,-0.9
COc1cc(NC(=S)N2CCCCC2C)c(OC)cc1Cl (centres undefined),-3.7,-6.2,3.1,-10.3,-3.2,-1.9,8.3,-0.5,12.8,0.1
CCc1cc2c(=O)c(-c3cnn(-c4ccccc4)c3)c(C)oc2cc1OCC(=O)Nc1ccc(F)c(F)c1,-1.1,3.5,.,.,.,-10.9,2.6,-3.4,-7.0,0.4
Cc1ccc(NC(=S)NCc2ccco2)c(C)c1,.,2.5,1.7,5.2,1.0,-1.1,-3.1,-0.4,4.5,0.0
O=C(Nc1cc(S(=O)(=O)N2CCCCC2)ccc1N1CCCCC1)C1CC1,-48.7,1.4,-20.1*,-6.5*,6.4*,23.0,-0.1,-5.3,-4.5,-0.1
O=C1OC(/C=C/c2ccc(Cl)cc2)=NC/1=C/c1ccco1,5.6,2.4,.,.,.,-11.5,-3.1,-4.3,1.9,-0.9

# As entered above:
# Under rRNA inh HTS OD600, CCOC(=O)CNC(=O)C1CCC(CNS(=O)(=O)c2cccc3nsnc23)CC1 (centres undefined) has 8.9
# Under ALR inh, Cc1c(CCC(=O)N[C@@H](CCCNC(N)=O)C(=O)O)c(=O)oc2cc3oc4c(c3cc12)CCCC4 has -10.2

# Next structures
SMILES,ALR inh,LANA-H2B inh,rRNA inh HTS,rRNA inh HTS OD600,rRNA inh HTS RFP,T cruzi inh,Calb FLC,Beta apoptosis,Beta2AR agonist,Bfl-1 A1 inh
CC(C)CN1C(=O)C(=O)N(CC(=O)N(C)CC(=O)Nc2ccc(Cl)c(C(F)(F)F)c2)C1=O,.,0.4,.,.,.,.,.,-1.5,-2.3,-0.7
Cc1cccc(NC(=O)C2CCN(S(=O)(=O)c3ccc4c(c3)OCCCO4)CC2)n1,-1.3,1.5,-8.2,-7.6,2.8,-2.6,-7.3,0.2,-2.1,-0.3
CC(C)N(Cc1nc(-c2ccc(Cl)cc2)no1)Cc1nccn1C,-1.6,1.3,-11.8,-10.5,1.4,4.7,-33.4,2.0,-13.2,-1.6
NC(=O)c1nnsc1Sc1c(C(N)=O)nnn1-c1cccc(N)c1,-15.0,-3.0,-27.1*,-15.3*,-2.2*,-0.8,-5.7,-8.9,-3.7,-0.3
CC(C)c1nc(SCC(=O)N2CCOCC2)c2c(=O)n(C)c(=O)n(C)c2n1,.,-7.3,4.1,14.7,-0.3,4.6,2.3,2.9,-10.7,-0.2
Cc1cc(-c2ccco2)n(CC(=O)NCCCc2ccccc2)n1,-3.1,0.1,10.1,4.9,-0.8,9.3,-11.7,.,-6.3,0.0
COCCn1c(SCC(=O)N2CCCCCC2)nc2c(c1=O)SCC2,-0.7,8.7,1.6,-6.8,-0.8,-2.3,2.3,-3.8,-11.4,0.5
COc1cccc(COCC(O)Cn2cnc3cc(C)c(C)cc32)c1 (centres undefined),1.8,-1.7,-22.9,-32.6,-1.3,-22.3,?,-4.7,-0.2,-0.9

# High-throughput results as filed in PubChem.

# Only part of the results is shown; rates above refer to the full screens.
